PrP 5UTR inh – inhibition of PrP 5' UTR reporter expression | inhibition, % (concentration not given with the values) | cell-based PrP 5' UTR mRNA reporter, plate reader | actives 0.35% (n = 340,000);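 active = every replicate at 50% or more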;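 also: 0 = median of the neutral control wells; tested in H4 reporter cells; numbers are from one replicate; inactives centre near -14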
Mtb hypoxia inh – PubChem AID 1159583; M. tuberculosis hypoxia-regulated fluorescent reporter, fluorescence; fluorescence inhibition, % (concentration not given with the values); actives 0.1% (n = 300,000);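 active = 35 to 45% if threefold the growth effect, above 45% if 1.5-fold the growth effect; inactive = the rest, general growth blockers included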;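 also: wells of about 50 µL received 100 nL stock; 0% = vehicle wells and 100% = reference inhibitor wells; whole bacteria with a GFP reporter of the hypoxia response; strong numbers were not always called active; many hits fall short of the cut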
ugtP null kill – growth inhibition of ugtP-null S. aureus, primary screen, RN4220 ugtP deletion, OD600. 16 h; some inactives read as strong as hits. growth inhibition, % (no concentration beside the values). actives 0.54% (n = 330,000);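 active = z-score under -3 and OD600 up to 0.15 on both plates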;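 also: plate controls were untreated wells for no effect and antibiotic for full effect; wells of about 80 µL received 100 nL stock; the first replicate is given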
Bead autofluor – counter-screen for toxin protease inhibitors: compound fluorescence. compound autofluorescence counterscreen, microsphere flow cytometry; hits give high values. fluorescence intensity (no concentration beside the values). actives 3.1% (n = 360,000). AID 624483;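 active = at least 3 SD above the mean of all compounds, about 16000 in these data; inconclusive = too few beads counted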;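 also: 100 nL of 1 mM stock went into each well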
Sa RN4220 lethal – growth inhibition of S. aureus RN4220, primary screen, OD600. actives 0.33% (n = 330,000). 16 h. inhibition, % (concentration not given with the values);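 active = z-score of -3 or lower and OD600 up to 0.18 on both plates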;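 also: plate controls were untreated cells for no effect and reference antibiotic for full effect; stock transfer was 100 nL into about 80 µL; one replicate is shown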
BJeLR lethal – MLPCN primary cell-based screen for lethality selective to Ras in HRASV12 cells. inhibition, % (concentration not given with the values). AID 1554, 2009. BJeLR (HRASV12) viability, CellTiter-Glo ATP luminescence, 48 h; reference of the scale not given here. actives 0.17% (n = 300,000);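 active = replicate mean above 50%; inconclusive = above 50% but judged a plate artefact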;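 also: 50 nL library stock added to about 25 µL; numbers are from one replicate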
Mtb hypoxia inh growth – second read-out of Mtb hypoxia inh, no call of its own (marks repeat the call); growth inhibition, %; measured here: M. tuberculosis growth (absorbance);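 0% = vehicle and 100% = reference antibiotic; read after six days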
Starred values were filed as active, the others as inactive; u = inconclusive; x = no result given.

SMILES	PrP 5UTR inh	Mtb hypoxia inh	Mtb hypoxia inh growth	ugtP null kill	Bead autofluor	Sa RN4220 lethal	BJeLR lethal
Cc1ccc(C(=O)CC2(O)C(=O)N(C)c3ccc(Br)cc32)c(C)c1 (centres undefined)	-11	x	x	4	5199	15	18
CC1CN(S(=O)(=O)c2cccc(C(=O)NNC(=O)C(C)Oc3ccccc3F)c2)CC(C)O1 (centres undefined)	-9	5	5	4	5582	3.2	3
Cc1ccc(Cn2nc(C)c(C=NNC(=O)c3cccnc3)c2C)cc1	x	-1	-2	-5	x	-4.4	x
COc1ccc(Cl)cc1NC(=O)C(C)N1CCc2ccccc21 (centres undefined)	-8	-6	10	-13	4245	-2.2	3
C/C(CC(=O)Nc1cccnc1)=N/NC(=O)COc1ccc(Cl)cc1Br	-10	x	x	x	4981	x	2
Oc1ccc(CNC2CCCCC2)cc1	2	x	x	12	3707	2.7	-1
Cc1ccc(C)c(NC(=O)Cn2nnc(C(=O)NCc3ccco3)c2N)c1	-3	6	7	6	5518	1.4	10
O=C(CN1C(=O)N/C(=C\c2ccccc2OCc2ccc(C(=O)O)cc2)C1=O)Nc1ccccc1F	-22	-13	-13	-6	3906	1.0	-2
Cn1cccc1C=NNC(=O)c1ccc(OC(F)(F)C(F)F)cc1	x	-9	-3	0	x	-4.6	x
COCCCNC(=O)C(=O)NCC1CCCN1S(=O)(=O)c1cccs1 (centres undefined)	-9	7	7	4	u	2.4	14
O=C(c1ccco1)N1CCN(C(=O)c2[nH]ncc2[N+](=O)[O-])CC1	-2	9	5	6	1914	1.8	2
O=C(NCCc1ccccc1)Nc1cccc(Cl)c1	-44	-1	4	-2	2202	-2.7	-2
CN(N=C/C=C/c1ccccc1)c1cc(=O)n(C)c(=O)[nH]1	x	1	-9	-2	x	7.4	x
Cc1ccc([N+](=O)[O-])cc1-c1ccc2cccc(C)c2n1	-17	6	6	15	6865	4.5	1
Nc1ccc2nn(-c3ccccc3)nc2c1	-47	5	0	-2	3129	-1.0	x
CC1OC(OC2C(O)C(OCCc3ccc(O)c(O)c3)OC(CO)C2OC(=O)C=Cc2ccc(O)c(O)c2)C(O)C(O)C1O (centres undefined)	x	22	1	10	x	7.4	x
O=c1[nH]c2ccccc2c(=O)n1CCCO	0	-3	13	-1	10354	-0.4	-9
O=C(CSc1nnnn1-c1ccccc1)c1cc2ccccc2oc1=O	-28	x	x	7	4399	0.1	-9
Cc1cc(C)nc(SCc2cnc(C)nc2N)n1	-21	-4	-7	0	2426	4.2	0
COC(=O)NCC(c1ccco1)N1CCN(c2ccccc2)CC1 (centres undefined)	-14	5	14	8	5893	-0.4	18
Cc1ccc(C)c(Cn2nnc(C(=O)Nc3ccc4c(c3)OCCO4)c2N)c1	-31	6	0	4	3981	2.3	10
Cc1cccnc1CCNC(=O)c1ccc(OC2CCN(Cc3ccccn3)CC2)cc1	3	-2	16	0	5980	-2.2	0
Cc1ccccc1OC(C)C(=O)Nc1ccc2c(c1)OCCO2 (centres undefined)	-14	13	-8	-1	6331	2.1	-9
O=C(NCC(=O)N1CCCC1)c1ccc(Br)o1	-50	14	0	6	4268	4.6	9
COC(=O)Nc1ccc(S(=O)(=O)N2CCCC(C(=O)Nc3cccc4c3OCCO4)C2)cc1 (centres undefined)	-7	1	6	-8	4371	0.0	-5
COCCCNC(=O)c1cc2cc([N+](=O)[O-])cc(OC)c2oc1=O	-53	x	x	x	3683	x	4
Cc1ccc(S(=O)(=O)CC(CN2CCCCC2)N2CCCCC2)cc1 (centres undefined)	17	8	26	1	2029	2.1	1
COc1cc2c(cc1OC)C(C)N(C(=O)c1sc(-c3cnccn3)nc1C)CC2 (centres undefined)	x	-3	6	-4	x	-2.7	-5
CCC(C)[C@H](NC(=O)NCc1ccccc1Cl)C(=O)OC (some centres undefined)	-5	7	1	3	8137	3.3	1
O=C(CCCOc1ccccc1)NCC1CCCO1 (centres undefined)	-35	8	11	6	10155	2.7	14
COc1ccc(CCNC(=O)COC(=O)COc2c(C)cc(C)cc2C)cc1OC	-20	7	10	3	6058	3.2	-12
CC1(C)CC(=O)C2=C(C1)OC(N)=C(C#N)C21CCC2(CC1)OCCO2	-20	0	1	1	8012	7.1	-1
Cn1c(=O)cc(SCC(=O)Nc2ccc3c(c2)OCO3)c2ccccc21	-12	11	6	-2	3610	-1.5	-10
N=c1c2c3c(sc2nc2n1CCC2)CCCC3	-24	18	1	2	u	4.0	2
Cc1ccccc1N(C(=O)c1csnn1)C(C(=O)NC(C)(C)C)c1ccncc1 (centres undefined)	-11	x	x	x	4097	x	0
O=C(Nc1nnc(-c2ccccc2)o1)c1cccc(N2C(=O)CCC2=O)c1	-23	x	x	x	2287	x	-10
CC(/C=C1\SC(=S)N(CCC(=O)Nc2ccccc2O)C1=O)=C\c1ccccc1	-1	8	3	-4	5000	11	-6
Nc1nc(N2CCCCC2)nc(N2CCCCC2)n1	-14	-13	2	2	2965	-0.1	0
CC(OC(=O)COc1ccccc1Cc1ccccc1)C(=O)N(C)c1ccccc1 (centres undefined)	3	4	1	10	6109	2.6	0
NC(=O)c1ccccc1NC(=O)Nc1cccc2ccccc12	-7	-10	-2	2	2398	-2.0	2
COc1cccc(C(=O)NCCS(=O)(=O)NCc2ccc3c(c2)OCO3)c1	-14	2	5	2	6164	0.3	-3
Cc1nc(=O)c(-c2ccccc2)c(C)n1CCCO	-13	x	x	13	3452	3.2	0
CC(C)C(=O)Nc1ccc(-c2ccc3nncn3n2)cc1	-41	12	-4	19	5565	8.5	1
CC1CCN(CCc2nc3cc(NC(=O)COc4ccc(Cl)cc4)ccc3n2C)CC1	-6	4	-10	14	4132	4.9	-3
CCc1ccc(-c2ccc(SCc3ccccn3)nn2)cc1	-48	4	1	11	4483	2.8	-2
Nc1c(C(=O)O)sc2nc(-c3ccccc3)c3c(c12)CCCC3	-20	10	7	-4	2534	10	x
COc1ccc(C(C)=O)cc1COC(=O)C1CCN(C(=O)c2ccc(Cl)cc2)CC1	-15	11	3	3	3618	6.2	x
COc1cc(C(=O)ON=C2C=CC(=O)C(C)=C2)cc(OC)c1OC	x	4	15	-6	x	6.8	x
COc1ccc(/C=C/C(=O)NC(=S)N2C[C@H]3C[C@H](C2)c2cccc(=O)n2C3)cc1OC	-3	x	x	1	5419	2.3	-7
COC(=O)c1cc(NC(=O)CN(c2ccc(OC)cc2)S(=O)(=O)c2ccc(F)cc2)ccc1Cl	-19	1	8	-4	2908	-13	-13
Carrying on.
SMILES	PrP 5UTR inh	Mtb hypoxia inh	Mtb hypoxia inh growth	ugtP null kill	Bead autofluor	Sa RN4220 lethal	BJeLR lethal
COc1ccc(N/C=C\C(=O)c2ccc3ccccc3c2)cc1	-70	-1	9	0	4222	-2.5	-1
CCN(CC)C(=O)CSc1nnc([C@@H](N)C(C)C)o1	-12	19	7	3	5819	2.2	-2
CCOC(=O)N1CCN(c2c(NCCCN(CC)c3cccc(C)c3)c(=O)c2=O)CC1	-4	-3	0	7	8210	6.4	4
CCC(=O)OCC(=O)C1(OC(=O)CC)C(C)CC2C3C(Cl)CC4=CC(=O)C=C[C@]4(C)C3C(O)C[C@@]21C (some centres undefined)	x	-5	1	-7	x	0.2	x
COc1cccc(N2CC(C(=O)Nc3nnc(SCCN4CCOCC4)s3)CC2=O)c1 (centres undefined)	-25	5	0	2	4812	0.3	3
Cn1c(O)c(/C=N/N2CCOCC2)c(=O)n(-c2ccccc2)c1=S	-4	16	-1	7	x	2.3	-4
CN(C(=O)COC(=O)CNC(=O)c1ccc(Cl)cc1Cl)c1ccccc1	-9	18	3	2	4761	5.6	9
O=S1(=O)CCO[C@H]2Cc3ccccc3[C@H]2N1Cc1cccc(Cl)c1	1	x	x	x	4373	x	0
Cn1c(-c2sccc2OCc2ccccc2)n[nH]c1=S	-3	-2	2	4	8487	1.0	-1
Cn1c(=O)n(C)c2cc(NC(=O)CCl)ccc21	-30	x	x	-5	6895	1.9	-13

Molecules from the list above that have an NH in an aromatic ring, in the order listed:
SMILES	PrP 5UTR inh	Mtb hypoxia inh	Mtb hypoxia inh growth	ugtP null kill	Bead autofluor	Sa RN4220 lethal	BJeLR lethal
O=C(c1ccco1)N1CCN(C(=O)c2[nH]ncc2[N+](=O)[O-])CC1	-2	9	5	6	1914	1.8	2
CN(N=C/C=C/c1ccccc1)c1cc(=O)n(C)c(=O)[nH]1	x	1	-9	-2	x	7.4	x
O=c1[nH]c2ccccc2c(=O)n1CCCO	0	-3	13	-1	10354	-0.4	-9
Cn1c(-c2sccc2OCc2ccccc2)n[nH]c1=S	-3	-2	2	4	8487	1.0	-1

Carrying on.
SMILES	PrP 5UTR inh	Mtb hypoxia inh	Mtb hypoxia inh growth	ugtP null kill	Bead autofluor	Sa RN4220 lethal	BJeLR lethal
CCN(C[C@H]1N[C@@](C)(C(=O)OC)[C@H]2C(=O)N(C)C(=O)[C@@H]12)S(=O)(=O)c1ccc(C)cc1	-18	4	8	5	3419	-0.6	x
Cc1cc(C(=O)Nc2ccc(F)cc2)c2ccccc2n1	-42	11	1	4	3795	2.0	-1
O=C(OC1CCCCC1=O)c1ccc(S(=O)(=O)Nc2ccccc2)cc1 (centres undefined)	-15	3	-1	4	5243	-0.4	-3
Cc1nnc(SCC(=O)Nc2cccc(S(=O)(=O)N3CCCCC3)c2)s1	-10	1	-4	6	3238	3.7	x
COc1cccc(C(c2nnnn2Cc2ccccc2)N2CCN(C3CCCC3)CC2)c1OC (centres undefined)	-18	x	x	-5	4170	-7.7	-7
Cc1cc(C)c(NC(=S)N(C)C)cc1C	-19	5	-3	8	3730	4.1	-13
CCN(CC)S(=O)(=O)c1cccc(-c2cn3cc(C)ccc3n2)c1	-38	5	6	-5	2868	16	-4
CCn1c(SC(C)C(=O)O)nc2sc3c(c2c1=O)CCC3 (centres undefined)	-4	x	x	-3	4729	2.2	x
CC1CCc2cc(F)cc3c(O)c(C(=O)NCCN(C)C)c(=O)n1c23 (centres undefined)	-19	2	-4	0	4713	-2.0	-2
CCc1cc2cc(C)ccc2nc1SCC(=O)Nc1cc(C)on1	-13	6	8	14	3399	4.6	-6
CCN(CC(=O)Nc1cc(Cl)ccc1C)C(=O)CCOc1ccccc1C	-8	-2	4	-8	6276	-1.3	-9
CC(=O)N1c2ccccc2NC2=C(C(=O)CCC2)C1c1ccco1 (centres undefined)	1	-6	6	6	3312	11	-8
O=C(CCC(=O)Nc1ccc(F)cc1)NN=Cc1ccccc1O	x	-1	2	16	x	2.9	x
Cc1ccc(-n2nnnc2SCC(=O)Nc2nc(-c3ccc(F)cc3)cs2)cc1C	-12	8	3	79	10647	-17	0
CC(C)(C)c1ccc2c(c1)OC(C(=O)N/N=C\c1ccc[nH]1)CO2 (centres undefined)	-13	x	x	x	5718	x	-1
CCn1c(SCC(=O)NCc2ccco2)nnc1C1CCCC1	-3	3	2	11	4185	3.0	-9
O=C(Nc1ccc(N2CCOCC2)cc1)C1CCCCC1	-14	x	x	-4	3870	1.2	0

Quoted from the listing:
O=S1(=O)CCO[C@H]2Cc3ccccc3[C@H]2N1Cc1cccc(Cl)c1 – BJeLR lethal: 0
CC(=O)N1c2ccccc2NC2=C(C(=O)CCC2)C1c1ccco1 (centres undefined) – Bead autofluor: 3312
O=C(Nc1nnc(-c2ccccc2)o1)c1cccc(N2C(=O)CCC2=O)c1 – BJeLR lethal: -10
CCN(C[C@H]1N[C@@](C)(C(=O)OC)[C@H]2C(=O)N(C)C(=O)[C@@H]12)S(=O)(=O)c1ccc(C)cc1 – ugtP null kill: 5

Screening data deposited in PubChem BioAssay by several laboratories.
